# NPYLR7 ag: activates Aedes aegypti NPYLR7 receptor; HEK293T NPYLR7/Galpha15, GCaMP6s calcium fluorescence; activation, % at 10 µM; 0.15% of 270,000 active; AID 1259423; in the data active = activation above about 40%;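 note: 0% = vehicle and 100% = reference agonist at the receptor; some compounds past the cut are filed as inactive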
# NPYLR7 ag max-min: second read-out of NPYLR7 ag, no call of its own (marks repeat the call); activation, %; measured here: Max-Min RFU normalised activation; some inactives read as strong as hits;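 span of the calcium signal over five minutes; 0% = vehicle and 100% = native peptide agonist; compound fluorescence can raise it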
# * = called active by the depositor; & = joins results of further samples.
structure	NPYLR7 ag	NPYLR7 ag max-min
O=C(c1cncc(N2C[C@@H]3[C@@H]4CC[C@@H](C4)[C@@H]3C2)n1)N1CCCC1	11	1
CCOCCCn1c(SCc2ccc(Cl)cc2F)nc2cc(C(=O)OCC)ccc21	2	-3
CCOC(=O)c1nn(-c2ccccc2Cl)c(=O)cc1OS(=O)(=O)c1cccs1	5	2
O=C1CCCc2c1[nH]c1ccc(-c3ccccc3CO)cc21	4	2
CCN1CCCCC1C(=O)N1CCC(C(F)(F)F)(C(F)(F)F)C1 (configuration not stated)	1	-19
O=C(Cn1nnc(-c2ccc(F)cc2)n1)c1ccc2c(c1)OCO2	3	3
Cc1ccsc1[C@@H]1CCN(C(=O)c2ccc(-c3ncc[nH]3)s2)C[C@H]1O	-1	-3
Cc1cccc(C(=O)N2CCc3c([nH]c4ccccc34)C2c2ccc([N+](=O)[O-])c(Cl)c2)c1 (configuration not stated)	-10	-11
Clc1ccccc1-c1noc(-c2ccc(-c3ccccc3)cc2)n1	-5	-6
CCOC(=O)C1(CCCc2ccccc2)CCN(C(=O)Nc2cccc(C)c2C)CC1	2	0
O=C(Nc1ccc2c(c1)OCCO2)N1CCCC(c2nnc3ccccn23)C1 (configuration not stated)	-3	19
N#Cc1ccc(CN2CCCN(C(=O)C3CCCCN3Cc3ccc(F)cc3)CC2)cc1 (configuration not stated)	5	3
COCC(=O)N(CCN1CCCC1)CC(=O)N1CCc2sccc2C1COc1ccc(C(C)C)cc1 (configuration not stated)	-3	3
COc1ccc(OCc2nc(-c3ccc(OC)c(OC)c3)no2)cc1	-6	-8
COc1cccc(COC2CN(CC(C)C)C(=O)CN(C(=O)c3cccc(N4CCCC4=O)c3)C2)c1 (configuration not stated)	15	2
O=C(CN1CCNCC1)NCCc1nc2ccccc2c(=O)[nH]1	-5	-6
Cc1ccccc1-c1noc(CCC(=O)NCc2cc(C(C)(C)C)n[nH]2)n1	24	18
Cc1c(C(=O)O)c(C(C)C)nc2cc3c(cc12)OCO3	1&12	0&10
CCCC(C)c1nc(N2CCCN(C(=O)C3C[C@H]3c3ccccc3)CC2)c2cnn(-c3ccccc3)c2n1 (some centres not stated)	8	11
CNC(=O)[C@@H]1[C@@H](OC(=O)Nc2ccccc2)C(=O)N(C)C12CCN(C(=O)CC(C)(C)C)CC2	26	30
Cc1cc(C)n(CC2(CNC(=O)c3cccc4nccnc34)CC2)n1	2	2
CS(=O)(=O)N1CCc2cc(S(=O)(=O)N3CCN(Cc4ccc5c(c4)OCO5)CC3)ccc21	-4	-6
COc1nc(N)c(C#N)c(-c2ccc3c(c2)OCO3)c1C#N	-4	-9
COC(=O)c1ccc(NC(=O)c2cccn(OCc3cccc(C)c3)c2=O)cc1	1	14
COC(=O)Cn1c(=NC(=O)CN2C(=O)CCC2=O)sc2ccccc21	3	-1
O=S1(=O)CC(O)C(S(=O)(=O)c2ccccc2)C1 (configuration not stated)	0	-1
COCCCn1ccc2c(cnc3nc(C)nn32)c1=O	3	8
CC(=O)c1sc2nc(CN3CCCC3c3cccs3)[nH]c(=O)c2c1C (configuration not stated)	5	14
CC1(C(=O)N2CCn3cncc3C2)CCCCO1 (configuration not stated)	-4	-11
Cc1ccc(NC(=O)NC(=O)CN2CCN(S(=O)(=O)c3cccc(F)c3)CC2)c(C)c1	7	7
CC(C)Cc1nc([C@H]2CCC(=O)N2)n(-c2ccc3c(c2)OCCO3)n1	0	-2
COC(=O)c1ncn(CCS(=O)c2ccccc2)n1 (configuration not stated)	0	-2
O=C(Cn1cnc2sccc2c1=O)NC12CC3CC(CC(C3)C1)C2	10	13
NC(=O)c1cc(-c2cc(NC3CCCC3)nc3[nH]ccc23)cs1	4	3
COCCN1CCC(CN2CCC3(CCOCC3)CC2)CC1	3	0
COC(=O)c1ccc(CSc2nc3cc(S(=O)(=O)N4CCCC(C)C4)ccc3n2CC2CCCO2)c(OC)c1 (configuration not stated)	25	13
CCCc1cc(=O)[nH]c(-n2nc(C)cc2NC(C)=O)n1	7	3
Cc1c(C)n2c3c(=O)n(CC(=O)C(C)(C)C)c(=O)n(C)c3nc2n1-c1ccccc1F	1	1
CCOc1ccccc1N1CCN(C(=O)CSc2nc(Cl)cc(N3CCN(c4ccccc4F)CC3)n2)CC1	-9	-2
O=C(NC1CCC(NC(=O)[C@H]2CCCN2S(=O)(=O)c2ccccc2)CC1)c1ccccc1 (some centres not stated)	-2	-3

# By substructure: the entries above with an aryl methoxy group.
structure	NPYLR7 ag	NPYLR7 ag max-min
COc1ccc(OCc2nc(-c3ccc(OC)c(OC)c3)no2)cc1	-6	-8
COc1cccc(COC2CN(CC(C)C)C(=O)CN(C(=O)c3cccc(N4CCCC4=O)c3)C2)c1 (configuration not stated)	15	2
COc1nc(N)c(C#N)c(-c2ccc3c(c2)OCO3)c1C#N	-4	-9
COC(=O)c1ccc(CSc2nc3cc(S(=O)(=O)N4CCCC(C)C4)ccc3n2CC2CCCO2)c(OC)c1 (configuration not stated)	25	13

# Next part:
structure	NPYLR7 ag	NPYLR7 ag max-min
CCN(C(=O)C(C)Sc1nc2sc3c(c2c(=O)[nH]1)CCCC3)C1CCS(=O)(=O)C1 (configuration not stated)	-9	-9
COc1ccc(-c2ccc(N3CCCC(C(=O)NC4CC4)C3)nn2)cc1 (configuration not stated)	-11	-16
CC(NC(=O)c1cccnc1N(C)C1CCCCC1)C(=O)N(C)C (configuration not stated)	37	29
Cc1nn(CN(C)Cc2cnn(C)c2)c(=S)n1C	15	14
CCC(CC)n1[nH]c(=O)c2c(C)cc(=O)[nH]c21	0	-3
COc1ccc(/C=C/CN2CCCN(C(=O)C3CCC3)CC2)cc1	26	16
Cc1ccc(S(=O)(=O)N2CCCCC2)cc1NC(=O)CSc1nncs1	2	1
O=C1CCN(c2nc(-c3ccc(Cl)cc3)nc3c2CNC3)CCN1	6	1
NC(=O)C1CN(C(=O)c2ccc(COc3ccccc3)o2)c2ccccc2O1 (configuration not stated)	4	2
CCOC(=O)c1sc(-c2ccccc2)cc1NC(=O)C1CCCO1 (configuration not stated)	0	2
Cc1ccc(-c2ccc(=O)n(Cc3ccccc3)n2)cc1	12	5
Cc1nnc(NC(=O)CSc2nnc(NC(=O)c3cc([N+](=O)[O-])ccc3Cl)s2)s1	-6	1
CC(C(=O)NCc1ccccn1)n1c(=O)n(-c2ccccc2Cl)c(=O)c2ccc(Cl)cc21 (configuration not stated)	6	16
CN(CCc1ccccc1)Cc1nc(-c2ccc(C(F)(F)F)cc2)no1	-2	-3
CCCN(CCC(=O)N1CCN(c2ccccc2F)CC1)c1nc(CC)nc2cc(Cl)ccc12	5	11
CCCS(=O)(=O)NCCc1csc2nc(-c3cccc(F)c3)nn12	6	3
COc1cccc(CNC(=S)Nc2ccc3c(c2)c(=O)n(C)n3Cc2csc(C)n2)c1	2	0
Cc1nc(NCCNS(=O)(=O)c2c(C)noc2C)cc(-n2cccn2)n1	-5	-10
CCn1c(SCC(=O)NN=C(C)c2ccc(OC(C)=O)cc2)nnc1-c1ccccc1	-4	-9
O=C1c2ccccc2S(=O)(=O)N1Cc1nc(-c2cccs2)n[nH]1	0	41
Cc1ncc(C(=O)NCCCc2nc3ccccc3s2)c(C)n1	24	18
Cc1sc2nc(CN3CCOCC3)nc(Sc3nnnn3C)c2c1C	1	12
N#Cc1cc2c(=O)n3ccccc3nc2n(CCCn2ccnc2)c1=N	-1	-1
O=c1c2cnc3ncnn3c2ccn1-c1ccc(F)c(F)c1	6	6
C#CC1(OCC(O)CN2CCC(C)CC2)CCCCC1 (configuration not stated)	0	26
O=S(=O)(Nc1ccc(Br)cc1)c1ccc(Br)s1	-1	0
CCOC(=O)c1cnn(C)c1NC(=O)COc1ccc(Cl)c(C)c1	-3	-5
CC(=O)Nc1cccc(NC(=O)c2cc3c(=O)n(C)c(=O)n(C)c3n2Cc2ccccc2)c1	1	0
CCC(C)NC(=O)c1cc(-c2ccccc2F)nc2cc(-c3ccccc3)nn12 (configuration not stated)	13	15
Cc1nc(C(C)Nc2ccc(-c3nc(C)c(C)c(=O)[nH]3)cn2)cs1 (configuration not stated)	-1	10
CC(C(=O)NCC1CCCO1)S(=O)(=O)Cc1coc(-c2cccc(F)c2)n1 (configuration not stated)	9	6
CC(c1ccccc1)N(Cc1cc(N)ccc1N(C)C)C(=O)c1ccc(F)cc1 (configuration not stated)	3	-1
C=c1occc1=C1NN=C(SC(C)C(=O)NC2CCCC2)O1 (configuration not stated)	4	5
CCOC(=O)[C@H]1C[C@@H]2O[C@H]1[C@H]1CN(Cc3ccc(OC)cc3)C[C@H]1[C@@H]2O	-6	-3
Cc1cc(Cl)c(C)c(S(=O)(=O)N2CCCC2c2nnc3ccccn23)c1Cl (configuration not stated)	2	-2
COC(=O)COc1cccc(C(=O)NS(=O)(=O)c2ccc(F)c(F)c2)c1	3	1
CCOC(=O)C1(CCCc2ccccc2)CCN(C(=O)C2CC=CCC2)CC1 (configuration not stated)	-2&9	-9&10
O=C(Nc1ccc(-c2nc3ccccc3[nH]2)cc1)C1CCCN(Cc2cccnc2)C1 (configuration not stated)	7	4
N#Cc1c(F)cccc1N1CCN(S(=O)(=O)c2cccs2)CC1	12	4
O=C1OC(c2ccccc2)=NC1=Cc1ccc2c(c1)OCCO2	3	1
CCc1cnc(C)nc1N(C)CCCn1cccn1	2	-1
CCONC(=O)c1cn(-c2ccccc2)nc1-c1cccnc1	7	0
O=c1c2ccc(Cl)cc2nc(-c2cccc(OCc3ccccc3)c2)n1Cc1ccccc1	7	3
CNC(=O)NC(=O)CSc1nc2sc3c(c2c(=O)n1C1CCCC1)CCCC3	-4	-6
O=C(NCc1cccs1)c1cccnc1N1CCN(C(=O)NCc2cccc(F)c2)CC1	-1	-9
CC12CN3CC(C)(CN(C1)C3c1ccc3c(c1)OCO3)C2 (configuration not stated)	0	1
CC(C(=O)Oc1ccc(C2C3=C(Nc4[nH]c(=O)n(C)c(=O)c42)c2ccccc2C3=O)cc1)N1C(=O)c2ccccc2C1=O (configuration not stated)	0	21
c1cnc(N2CCOCC2)c(CNCc2ccc(C3CCCCO3)o2)c1 (configuration not stated)	8	5
COc1cccc(-c2nn(C(C)(C)C)cc2CNCc2ccco2)c1	2	2
CNc1cncc(-c2cccc(C(=O)N3CCOCC3)c2)n1	3	-1
CCOc1ccc(OCC)c(N=c2c([N+](=O)[O-])nn(-c3ccc(Cl)cc3)n2O)c1	-6	-12
O=C(NC1CC1)c1cc2n(n1)CCN(CC1CC1)C2=O	1	10
CC(C(=O)N(C)CC(=O)Nc1ccccc1OC1CCCC1)n1cccn1 (configuration not stated)	3	1
CCc1nc2n(n1)C(=O)C(C(c1cccc(Cl)c1)N1CCC(O)CC1)S2 (configuration not stated)	-2	-10
COc1cc(C2SCC(=O)N2CCc2ccccc2)cc(OC)c1OC (configuration not stated)	3	4
CC1(C)CC(=O)C(C2C3=C(CC(C)(C)CC3=O)Oc3ccccc32)C(=O)C1 (configuration not stated)	-15	-21

# An excerpt of these results, as labelled records.
> CC1(C)CC(=O)C(C2C3=C(CC(C)(C)CC3=O)Oc3ccccc32)C(=O)C1 (configuration not stated)
- NPYLR7 ag: -15
- NPYLR7 ag max-min: -21

> CCc1nc2n(n1)C(=O)C(C(c1cccc(Cl)c1)N1CCC(O)CC1)S2 (configuration not stated)
- NPYLR7 ag: -2
- NPYLR7 ag max-min: -10

> CC(C(=O)N(C)CC(=O)Nc1ccccc1OC1CCCC1)n1cccn1 (configuration not stated)
- NPYLR7 ag: 3
- NPYLR7 ag max-min: 1

# Continued:
structure	NPYLR7 ag	NPYLR7 ag max-min
CC(C)(C)NC(=O)[C@@H]1CCCC[C@@H]1C(=O)NCCSc1ncn[nH]1	10	1
CCS(=O)(=O)c1ccccc1C(=O)Nc1ccc(C)c(Cl)c1	1	-1
O=C(NCCOc1ccccc1-c1ccccc1)N1CCSCC1	5	0
CCCCC(=O)Nc1c(-c2cccc(OC)c2)nc2ccccn12	-11	-10
COCc1c(Br)c(C)nc(OCC(=O)N/N=C\c2ccc(-c3ccc([N+](=O)[O-])cc3)o2)c1C#N	-9	-13
CCCc1nc(C)cc(-c2cccc(NC(C)=O)c2)n1	-5	-5
Cc1ccc(C)c(S(=O)(=O)NC(C)c2nncn2C)c1 (configuration not stated)	8	6
O=C(O)c1snc(-c2ccccc2)c1NC(=O)C1CC1	21	12
CC1CCN(C(=O)COC(=O)C23CC4CC(CC(O)(C4)C2)C3)CC1	3	9
O=c1ccc(-c2ccc(F)cc2)nn1Cc1ccc(C(F)(F)F)cc1	10	5
CN(C)S(=O)(=O)c1ccc(-c2nccc(CCC(F)(F)F)n2)cc1	3	-39
O=C(CCNC(=O)c1ccco1)Nc1nc2c(s1)CCCC2	-8	-13
Cc1ccc(S(=O)(=O)N(CCN(C)C)Cc2c(-c3ccccc3)noc2N2CCc3ccccc3C2)cc1	16	13
O=C1NC23CCCCC2C(c2ccccc2O3)C1C(=O)N1CCOCC1 (configuration not stated)	-2	-6
CCCCN(CC(=O)N(CCc1c[nH]c2ccccc12)Cc1ccccc1)S(=O)(=O)c1ccc(Cl)cc1	17	17
Cc1cc(Br)ccc1NC(=O)CN(C)C(=O)CCn1c(=O)oc2ccccc21	7	3
CN1CC(=O)N2C[C@@H](NC(=O)c3ccc4c(c3)CCC4)C[C@H]2C1=O	6	0
O=C(CCl)NC1=NC(=Nc2ccccc2F)c2ccccc21	2	0
COc1ccc(-n2c(=O)[nH]c3c(C(N)=O)nc(CCc4ccccc4)nc32)c(OC)c1	-9	-14
CCCCN(Cc1cccn1Cc1cccc(C)c1)C(=O)CN(CCOC)C(=O)c1ccc(-c2ccccc2)cc1	1	12

# Source: PubChem BioAssay

# A portion of the library; the hit share may differ from the screen's.
